Assay outcomes from PubChem BioAssay.
YopH PTP inh: YopH (Yersinia) phosphatase inhibition. fluorescence Ex485/Em525. inhibition, %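 (about 10 µM by stock and volumes)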. 140,000 tested, 0.16% active. AID 898;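 active = inhibition of 50% or more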;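 note: controls were vehicle for no effect and minimum signal wells for full effect; inactives centre near -20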
Mtb betalactam: beta-lactam sensitization of Mtb H37Rv; M. tuberculosis H37Rv growth with meropenem, percent inhibition; hits of this screen are not shown here; inhibition, % at 25 µM; 330,000 tested, 0.27% active;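 active = about 74% or more and at least 40 points above the plate without the antibiotic, then above 30% in a dose series; inconclusive = first-round hits that could not be retested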;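 note: growth measured after seven days incubation then overnight dye step; 0% = bacteria only wells and 100% = bacteria with antibiotic; twin plates without the antibiotic show which effects depend on it; some results filed as inactive read as strong as hits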
Mtb H37Rv: M. tuberculosis H37Rv growth inhibitors, H37Rv strain (AID 1626) | M. tuberculosis H37Rv growth inhibition; higher % means a stronger effect | one-dose inhibition, % at 10 µM; IC50 in µM for titrated hits | 220,000 tested, 0.95% active;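 active = confirmed in a dose series; inconclusive = inhibition above 80% but not taken into the dose series; inactive = below 80% or under 30% at every dose of the series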;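 note: bacteria incubated seven days before Alamar blue readout; 0% = bacteria only wells and 100% = bacteria with antibiotic wells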
Arbovirus inh: arbovirus infection inhibition; inhibition, % at 10 µM; arbovirus infection cell-based antiviral screen; AID 1251; 200,000 tested, 0.37% active;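 active = inhibition from about 30%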;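 note: bluetongue infection of BSR cells; cell survival read as ATP light after 72 h; 0% = infected wells without compound and 100% = uninfected wells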
RecA splice inh: inhibitors of M. tuberculosis RecA intein splicing | P9WHJ3 | cell-free RecA intein splicing, fluorescence | inhibition, %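 (about 9 µM by stock and volumes)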 | 290,000 tested, 0.75% active; in the data active = inhibition above about 30%; inconclusive = no clear call, values can overlap the other calls;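 note: 0% = vehicle wells and 100% = reference inhibitor control wells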
Target sequence (P9WHJ3 whole entry, looked up, canonical isoform): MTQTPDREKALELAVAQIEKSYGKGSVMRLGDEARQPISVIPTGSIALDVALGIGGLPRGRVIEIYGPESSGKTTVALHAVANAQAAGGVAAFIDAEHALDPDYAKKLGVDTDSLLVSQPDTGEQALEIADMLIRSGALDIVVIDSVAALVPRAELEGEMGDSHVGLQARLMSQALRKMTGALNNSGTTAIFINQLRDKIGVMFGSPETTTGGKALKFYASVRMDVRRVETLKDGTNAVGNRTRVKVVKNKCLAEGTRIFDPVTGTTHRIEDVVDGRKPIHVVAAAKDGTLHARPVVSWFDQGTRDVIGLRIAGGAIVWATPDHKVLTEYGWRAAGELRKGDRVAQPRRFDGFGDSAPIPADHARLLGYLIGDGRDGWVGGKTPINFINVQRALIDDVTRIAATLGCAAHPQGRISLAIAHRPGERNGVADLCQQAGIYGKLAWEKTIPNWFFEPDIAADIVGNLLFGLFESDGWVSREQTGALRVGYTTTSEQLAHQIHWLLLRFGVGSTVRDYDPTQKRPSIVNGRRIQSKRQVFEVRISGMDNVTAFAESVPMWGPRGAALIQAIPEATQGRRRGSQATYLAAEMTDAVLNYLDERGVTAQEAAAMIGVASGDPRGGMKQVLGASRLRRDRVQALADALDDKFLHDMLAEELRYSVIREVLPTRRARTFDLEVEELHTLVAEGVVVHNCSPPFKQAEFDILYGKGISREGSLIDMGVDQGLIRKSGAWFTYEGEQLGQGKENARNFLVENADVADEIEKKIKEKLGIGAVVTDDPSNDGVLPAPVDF
* hit, by the source's call; u = inconclusive; x = not tested or not shown.

#	canonical_smiles	Arbovirus inh	Mtb H37Rv	Mtb betalactam	RecA splice inh	YopH PTP inh
1	C/C=C/C(=O)OCC(=O)Nc1nc2ccc(C)cc2s1	-4	-8%	-2	0.9	-11
2	O=C(/C=C/c1ccco1)N(c1ccccn1)c1ccccn1	12	3%	-2	-3.2	x
3	CCc1ccc(-n2c(=O)c3c(C)c(C)sc3n(CC(=O)NCC3CCCO3)c2=O)cc1 (configuration not stated)	-4	-5%	-8	-3.8	x
4	COc1ccc(OCCCC(=O)Nc2cccnc2)cc1	-3	x	5	2.3	-14
5	O=C(OC1CCCCC1=O)c1cc(Cl)ccc1[N+](=O)[O-] (configuration not stated)	15	-3%	-6	1.6	x
6	CC1(C)CC(=O)C(C=Nc2ccc3[nH]ncc3c2)=C(O)C1	4	-5%	8	11	-4
7	CC(=O)N1c2ccc3ccccc3c2C2C=CCC2C1c1ccc(Br)cc1 (configuration not stated)	-31	9%	3	x	-11
8	Cc1ccc2c(c1)N(CC(=O)NCCCN1CCOCC1)C(=O)c1cccnc1O2	x	x	u	9.2	x
9	Cc1c(NC(=O)c2c(N)n(-c3ccccc3)c3nc4ccccc4nc23)c(=O)n(-c2ccccc2)n1C	-5	1%	2	-2.9	-8
10	Cc1nc(N2CCN(C(=O)c3ccco3)CC2)c(C#N)c2c1CCCC2	x	x	14	3.4	x
11	CCn1c(CNC(=O)c2ccco2)nnc1SCC(=O)Nc1cc(F)ccc1C	x	x	4	-0.6	x
12	O=C(Cc1ccccc1)N/N=C/c1ccccc1OCc1ccc(Cl)cc1	4	-8%	9	0.1	-4
13	Cc1cccc([C@@H]2[C@@H]3C(=O)N(Cc4ccccc4)C(=O)[C@@H]3[C@]3(Cc4ccc(Cl)cc4)C(=O)N(c4ccc(Br)cc4)C(=O)N23)c1	x	x	0	2.7	x
14	COc1cccc(N2CCN(C(=O)C3CCN(S(=O)(=O)c4ccc5c(c4)oc(=O)n5C)CC3)CC2)c1	x	x	1	-4.5	x
15	CC(C)C[C@H](NC(=O)Nc1cccc(C(F)(F)F)c1)C(=O)O	4	5%	2	0.1	-56
16	COC(=O)CCCC1=CC2=CC(=O)C(C)(OC(=O)c3cccs3)C(=O)C2=CN1CC1CC1 (configuration not stated)	x	-11%	-2	3.3	x
17	CCN1C/C(=C/c2ccc(N3CCOCC3)cc2)C(=O)/C(=C/c2ccc(N3CCOCC3)cc2)C1	5	15%	33	-4.6	-18
18	O=C(Nc1ccc2c(c1)OCO2)c1ccc2c(c1)S(=O)(=O)c1ccccc1C2=O	x	-4%	-2	0.3	x
19	CC(C)(C)NC(=O)C(OC(=O)c1cccs1)c1ccccc1 (configuration not stated)	0	4%	7	1.2	x
20	CC(=O)C1C(c2ccc(Cl)cc2)c2c(noc2C)CC1(C)O (configuration not stated)	x	-7%	-11	-1.3	x
21	CCOC(=O)c1sc2ncnc(NCC(c3cccs3)N(C)C)c2c1C (configuration not stated)	-5	13%	u	-0.5	-27
22	Cc1csc(SCC(=O)NC(=O)NCCC(C)C)n1	-1	8%	1	-2.5	x
23	CSc1ncc(Cl)c(C(=O)NCc2ccc3c(c2)OCO3)n1	-6	0%	4	-2.3	-5
24	CN(C)S(=O)(=O)N(CC(=O)Nc1ccc2ccccc2c1)c1ccccc1	-23	7%	1	3.3	-19
25	CN(C)CCCN(C(=O)c1ccco1)c1nc2cc3c(cc2s1)OCO3	x	x	u	-0.1	x
26	CC1(C)C(=O)Nc2ccccc2N1C(=O)COC(=O)CCSc1ccccc1	-2	-14%	-3	8.4	-11
27	C/C=C/C(=O)Nc1cccc(C2=NOC3(C2)C[C@H](C(N)=O)N(C(=O)c2ccccc2C(=O)c2ccccc2)C3)c1 (some centres not stated)	x	0%	x	-4.5	x
28	COc1ccc(OCC(=O)Nc2cc(-c3nn(C)c(=O)c4ccccc34)ccc2OC)cc1	-9	0%	51	1.4	-37
29	CCOC(=O)N1CCN(C(=O)C(C)NC(=O)c2ccco2)CC1 (configuration not stated)	x	x	1	-1.3	x
30	O=C(CSC1=NCCN1)NC12CC3CC(CC(C3)C1)C2	10	-7%	-3	2.6	-49
31	Cn1ccnc1C1CCCCN1C(=O)c1cc(COc2ccc(F)cc2F)on1 (configuration not stated)	x	-5%	-5	0.2	x
32	COc1ccc(S(=O)(=O)NCc2cc(=O)n(C)c(=O)n2C)cc1F	x	x	2	0.6	x
33	Nc1nc(SCC(=O)Nc2ccc([N+](=O)[O-])cc2)[nH]c(=O)c1NC(=O)c1ccc(Br)o1	x	x	-7	-1.3	x
34	COc1cc(OC)c(OC)cc1/C=N/NC(=O)CSc1ccccc1F	x	x	1	0.0	x
35	COC(=O)c1ccc(S(=O)(=O)N(Cc2ccccc2)Cc2ccccc2)n1C	x	0%	0	0.6	x
36	O=C(CS(=O)(=O)c1ccc(Cl)cc1)Nc1nnc(-c2cccs2)o1	x	x	7	-2.9	x
37	CN(CC(=O)Nc1c(Cl)cccc1Cl)C(=O)c1cc(S(=O)(=O)N(C)C)ccc1N1CCCC1	x	x	-9	0.6	x
38	COc1cccc(NC(=S)N(CCCN2CCC(C)CC2)Cc2cccs2)c1	4	4%	-5	1.0	x
39	O=C(NCC1CCCO1)c1nc2c(nnn2Cc2ccc(F)cc2)c(=O)[nH]1 (configuration not stated)	4	-13%	25	-0.1	-42
40	O=c1[nH]c(=O)n(-c2ccccc2F)c(O)c1/C=C1\C=Nc2ccccc21	x	x	4	0.1	x
41	O=c1cccc(-c2ccc(Br)cc2)o1	0	-2%	-1	0.3	-27
42	Cc1ccc(CC2C(=O)N(c3cc(Cl)ccn3)C(=O)C2C)cc1 (configuration not stated)	x	-3%	0	x	x
43	Cc1cccc(-n2c(O)c(C=Nc3ccccc3)c3ccccc3c2=O)n1	2	8%	-6	-0.1	x
44	C=CCNC(=S)NC1CC(C)(C)NC(C)(C)C1	3	-3%	-5	-1.2	-11
45	CCC(CC)C(=O)Nc1c2c(nn1-c1ccc(C)cc1)CS(=O)(=O)C2	x	x	2	-0.1	x

Ten compounds out of the list, arranged by length of the SMILES, highest first.
#	canonical_smiles	Arbovirus inh	Mtb H37Rv	Mtb betalactam	RecA splice inh	YopH PTP inh
37	CN(CC(=O)Nc1c(Cl)cccc1Cl)C(=O)c1cc(S(=O)(=O)N(C)C)ccc1N1CCCC1	x	x	-9	0.6	x
39	O=C(NCC1CCCO1)c1nc2c(nnn2Cc2ccc(F)cc2)c(=O)[nH]1 (configuration not stated)	4	-13%	25	-0.1	-42
45	CCC(CC)C(=O)Nc1c2c(nn1-c1ccc(C)cc1)CS(=O)(=O)C2	x	x	2	-0.1	x
36	O=C(CS(=O)(=O)c1ccc(Cl)cc1)Nc1nnc(-c2cccs2)o1	x	x	7	-2.9	x
43	Cc1cccc(-n2c(O)c(C=Nc3ccccc3)c3ccccc3c2=O)n1	2	8%	-6	-0.1	x
38	COc1cccc(NC(=S)N(CCCN2CCC(C)CC2)Cc2cccs2)c1	4	4%	-5	1.0	x
42	Cc1ccc(CC2C(=O)N(c3cc(Cl)ccn3)C(=O)C2C)cc1 (configuration not stated)	x	-3%	0	x	x
34	COc1cc(OC)c(OC)cc1/C=N/NC(=O)CSc1ccccc1F	x	x	1	0.0	x
44	C=CCNC(=S)NC1CC(C)(C)NC(C)(C)C1	3	-3%	-5	-1.2	-11
41	O=c1cccc(-c2ccc(Br)cc2)o1	0	-2%	-1	0.3	-27

Later entries:
#	canonical_smiles	Arbovirus inh	Mtb H37Rv	Mtb betalactam	RecA splice inh	YopH PTP inh
46	OCCC1CN(CCCc2ccccc2)CCN1CCc1ccccc1 (configuration not stated)	x	x	-1	1.1	x
47	CCCC(CCC)C(=O)OC1C[C@H]2CC[C@@H](C1)[N+]2(C)C (some centres not stated)	3	-12%	-3	-4.1	-46
48	Cc1cc(S(=O)(=O)Nc2ccc(F)cc2)c(C)s1	1	-2%	-1	0.6	-14
49	COc1ccc(S(=O)(=O)NCc2ccncc2)cc1NC(=O)c1ccccc1C	x	x	-9	3.4	x
50	CC(C)COC(=O)CCNc1n[nH]c(=O)[nH]c1=O	4	0%	3	-1.1	26
51	COc1ccccc1NC(=O)CSc1nncn1-c1cccnc1	7	-10%	-6	-1.0	-29
52	COc1ccc(CN2CCN(CCC(C)C)C(CCO)C2)cc1Cn1cncn1 (configuration not stated)	-1	1%	-8	1.5	x
53	COc1ccc(CCn2c(SCC(=O)Nc3cc(C)on3)nc3ccccc3c2=O)cc1OC	-11	x	u	-5.6	-41
54	CC(C)c1nc(SCC(=O)N2CCCc3ccccc32)c2c(=O)n(C)c(=O)n(C)c2n1	-36	8%	8	-6.4	-47
55	CCc1ccccc1N(C)S(=O)(=O)c1ccc2[nH]cc(C(=O)O)c(=O)c2c1	2	4%	-10	-2.8	x
56	Cc1csc(NC(=O)CCCc2cccs2)n1	-21	-4%	-6	-1.0	x
57	O=C(NC(Cc1c[nH]c2ccccc12)C(=O)O)c1ccc(Br)cc1 (configuration not stated)	0	-5%	-11	-0.8	x
58	O=C(NCCCN1CCOCC1)NC1CCCCC1	5	0%	-9	-2.1	1
59	O=C1C(=O)N(Cc2ccco2)C(c2cccc(Cl)c2)/C1=C(\O)c1ccc2c(c1)OCCO2 (configuration not stated)	-3	3%	-3	-5.4	-9
60	CCCCC(=O)Nc1cc2nn(-c3ccc(OC)cc3)nc2cc1C	-12	-7%	4	2.2	-5
61	COc1ccc(CNC(=O)CN(C)S(=O)(=O)c2ccc3c(c2)c(=O)n(C)c(=O)n3C)cc1	x	x	-9	0.3	x
62	Cc1nc2scc(C)n2c(=O)c1S(=O)(=O)N1CCN(c2ccccc2)CC1	x	x	2	-0.9	x
63	COc1ccccc1CCc1nnc(CCC(=O)N(C)Cc2cccc3cnccc23)o1	-3	-3%	4	-0.6	x
64	O=C(NC(=S)N1CCCC1)c1ccc(Cl)cc1Cl	x	x	65	-2.6	x
65	CCN(CC)S(=O)(=O)c1cccc(NC(=O)C2CC(=O)N(c3ccc4c(c3)OCCO4)C2)c1 (configuration not stated)	x	x	5	1.4	x
66	COc1ccc(C(CNC(=O)c2oc3ccc(Cl)cc3c2C)N2CCCCC2)cc1 (configuration not stated)	x	x	98	5.2	x
67	COc1nc(-c2ccccc2)ccc1-c1noc(C)n1	-10	-1%	-17	1.4	-5
68	COC(=O)C1=C(C)NC(=O)/C1=C\c1ccco1	-3	3%	-11	-2.2	-11
69	Cc1ccc2cc(CCNC(=O)c3ccc(S(=O)(=O)N4CCCCC4)cc3)c(=O)[nH]c2c1	-1	4%	0	-6.1	x
70	CCN(CC)CCCn1c(=S)[nH]c2cc(OC)c(OC)cc2c1=O	2	1%	-10	0.2	1
71	COc1ccc2c(c1)c(C(=O)CN1CCN(C(=O)c3ccco3)CC1)c(C)n2C	-1	4%	-3	0.4	-28
72	Cc1ccc(S(=O)(=O)N(C)c2ccc3ccccc3c2)cc1	-2	9%	7	7.8	x
73	Cn1c(=O)c2c(SCC(=O)NCC3CCCO3)nc(-c3ccccc3Cl)nc2n(C)c1=O (configuration not stated)	x	x	1	-0.4	x
74	O=C(N/N=C/c1ccccc1O)C1CCCC1	x	x	-5	-3.7	x
75	CC(C)CC1Nc2ncnc(N3CCOCC3)c2N(Cc2ccc(Br)cc2)C1=O (configuration not stated)	x	x	-17	1.5	x
76	Cc1cccc(C2NC(c3cccc(C)c3)C(C)C(=O)C2C)c1 (configuration not stated)	x	x	10	-2.2	x
77	C/C(=N\NC(=S)NCc1ccccc1)c1cccs1	-2	63%	94	4.3	x
78	Cc1ccc(C(=O)NCc2ccc3c(c2)OCO3)cc1C	x	x	1	-0.2	x
79	CSC1CCCCC1(O)CSc1nc2ccccc2o1 (configuration not stated)	-5	-6%	4	-0.9	-31
80	CCCN(C(=O)CSc1cc(-c2ccccc2)c2ccc(OC)cc2n1)C1CCS(=O)(=O)C1 (configuration not stated)	-13	-2%	13	14	24
81	CC(C)C(=O)N1CCc2cc(-c3csc(N)n3)ccc21	-6	18%	-1	-2.6	-24

This is a subset, so the mix of outcomes need not match the whole.
